Screening data: PubChem BioAssay, National Center for Advancing Translational Sciences (NCATS)
B2AR arrestin ag: beta-arrestin recruitment by human beta2-adrenergic receptor ligands | HTLA Tango cells, beta-arrestin recruitment, luciferase luminescence, 18 h | Potency, µM (top dose mostly 46.1 µM), without a hit: top-dose activation, most hits filed as activators | 44,000 tested, under 10 active | AID 1347077;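 also: potency is read from the fitted curve at half-maximal effect; 0% = DMSO and full agonism = EC100 isoproterenol or metaproterenol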
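Luminescence read-out: arrestin recruitment to recombinant beta2-AR releases tTA, inducing luciferase. Cells exposed 18 hr at 37 degrees C to up to 46 microM compound; %Activity from corrected signal, concentration-response curves classified by r2, magnitude and efficacy.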
FH mod: Identification of activators of human fumarate hydratase by quantitative high-throughput screening; hit rate 0.22% among 54,000; Potency, µM (series often up to 79.9 µM), for the others: at the highest dose activity change, negative = inhibition, most hits filed as inhibitors; AID 1347055, 2019; FH coupled MDH/diaphorase resazurin fluorescence, 15 min; Fumarate hydratase, mitochondrial (Homo sapiens), P07954; also: potency is read from the fitted curve at half-maximal effect; % is scaled to controls: 0 for no effect and ±100 for the full control effect; the screen sought activators but most active calls are inhibition curves; nearly all actives have a fitted effect of over 45% in size
GALK inhibitor: inhibits human galactokinase; P51570; 44,000 tested, under 10 active; AID 1347072; Potency, µM (doses to about 57.5 µM), for inactives: at the highest dose activity, negative = inhibition, actives largely listed as inhibitors; recombinant GALK, Kinase-Glo ATP luminescence, 1 h;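 also: plate controls were full GALK reaction for no effect and reaction lacking GALK for full effect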
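5 nM GALK; 35 uM ATP; 100 uM D-galactose; 20 mM HEPES pH 8.0, 5 mM MgCl2, 60 mM NaCl, 1 mM DTT, 0.01% BSA; 1 h RT; Kinase-Glo Plus luminescence.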
TSG101-PTAP inh: inhibitors of HIV-1 PTAP binding to human TSG101, validation; 44,000 tested, under 10 active; Q99816; Fluorescence polarization, FITC-PTAP peptide/Tsg101, 20 min; Potency, µM (top dose mostly 115 µM), inactives show at the highest dose activity change, negative = inhibition, actives largely listed as inhibitors; also: potency is read from the fitted curve at half-maximal effect; 0% is about no effect
Target sequence (Q99816 whole entry, looked up): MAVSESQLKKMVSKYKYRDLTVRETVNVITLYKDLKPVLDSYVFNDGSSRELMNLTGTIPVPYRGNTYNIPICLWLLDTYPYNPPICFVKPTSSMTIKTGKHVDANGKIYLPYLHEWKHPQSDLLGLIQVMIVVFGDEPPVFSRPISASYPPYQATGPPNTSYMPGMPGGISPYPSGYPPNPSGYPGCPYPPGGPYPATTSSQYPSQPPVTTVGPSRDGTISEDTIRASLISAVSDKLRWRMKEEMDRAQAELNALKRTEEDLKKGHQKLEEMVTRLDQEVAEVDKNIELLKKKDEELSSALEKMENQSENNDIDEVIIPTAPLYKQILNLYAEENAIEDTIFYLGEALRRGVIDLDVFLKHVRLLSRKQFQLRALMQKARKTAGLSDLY
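qHTS FP binding, 20 min r.t.: 10 uM Tsg101 domain + 50 nM FITC-PTAP peptide, pH 7.5 HEPES buffer with TCEP and EDTA.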
p53null 32C kill: kills p53 null cells at the permissive temperature; AID 903; hit rate 0.62% among 55,000; Potency, µM (series often up to 46.1 µM), inactives show top-dose activity change, negative = cytotoxicity, actives largely listed as cytotoxic; H1299-neo p53 null cells, ATP luminescence, 24 h, 32C;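 also: potency is read from the fitted curve at half-maximal effect; 0% = DMSO only and -100% = full killing by 100 µM tamoxifen; nearly all actives have a fitted effect of over 55% in size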
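Cells lacking p53 (H1299-neo) are plated at 600 per well and allowed to settle overnight at 37C. Test compounds (up to 46 uM) are added and held 24 hours at 32C, then ATP is quantified by luminescence.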
p53null 39C tox: kills p53 null cells at the nonpermissive temperature; H1299 p53-null (neo) cells, 39C, ATPlite viability, 24 h; Potency, µM (doses to about 46.1 µM), for inactives: at the top dose activity, negative = cell killing, most hits filed as cytotoxic; hit rate 0.97% among 55,000; AID 904;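 also: potency is read from the fitted curve at half-maximal effect; 0% = DMSO only and -100% = full killing by 100 µM tamoxifen; nearly all actives have a fitted effect of over 50% in size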
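H1299 lung cancer cells, p53-null (H1299-neo) or expressing p53 A138V (H1299-p53A138V), were plated overnight at 37C, then exposed to compounds at up to 46 uM for 24 hr at 39C. Viability was read by ATP-based luminescence.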
* marks the source's active call; other numbers are inactive results; ? = inconclusive; · = no result given. Calls follow the shape of the dose curve; as a rule, active = well fitted curve in the direction sought with a large enough effect; inconclusive = small, poorly fitted or top-dose-only effect, or another doubt; inactive = no such curve, though single readings can be large; an effect the other way counts as inactive or inconclusive. An excerpt; count on the stated rates, not on these rows.

Abbreviations – A = B2AR arrestin ag; B = FH mod; C = GALK inhibitor; D = TSG101-PTAP inh; E = p53null 32C kill; F = p53null 39C tox
CCOc1ccc(NC(=O)Cn2nnc(C(=O)OC)c2C(=O)OC)cc1
  A: -2%; B: 3%; C: 2%; D: 1%; E: 6%; F: 0%

CCOc1ccc(C2C(C(=O)Nc3ccccc3C)=C(C)Nc3nnnn32)cc1 (stereo not drawn)
  A: -1%; B: -4%; C: 0%; D: -3%; E: 1%; F: ?

O=C(Nc1ccc2c(c1)OCO2)c1cc(-c2ccc(Br)cc2)on1
  A: 0%; B: -11%; C: 3%; D: 2%; E: 15%; F: -19%

O=C(O)c1sc(Nc2ccccc2)nc1-c1ccccc1
  A: 1%; B: -6%; C: -3%; D: -3%; E: 1%; F: 3%

Cc1cccc(C)c1Nc1sc(C(=O)c2ccccc2)c(N)c1C(=O)Nc1ccc(F)cc1
  A: -3%; B: -14%; C: 0%; D: 0%; E: 7%; F: 3%

N#Cc1c(C(F)(F)F)cc(-c2ccc(F)cc2)nc1SCC(=O)Nc1ccccc1
  A: 0%; B: 4%; C: 7%; D: 8%; E: 5%; F: 2%

CN1CC[C@@H](NC(=O)Nc2ccc(C#N)cc2)C[C@@H]1c1nc2ccccc2[nH]1
  A: ·; B: -5%; C: ·; D: ·; E: ·; F: ·

Three compounds drawn at random from those above:
Abbreviations – A = B2AR arrestin ag; B = FH mod; C = GALK inhibitor; D = TSG101-PTAP inh; E = p53null 32C kill; F = p53null 39C tox
CCOc1ccc(NC(=O)Cn2nnc(C(=O)OC)c2C(=O)OC)cc1
  A: -2%; B: 3%; C: 2%; D: 1%; E: 6%; F: 0%

CCOc1ccc(C2C(C(=O)Nc3ccccc3C)=C(C)Nc3nnnn32)cc1 (stereo not drawn)
  A: -1%; B: -4%; C: 0%; D: -3%; E: 1%; F: ?

N#Cc1c(C(F)(F)F)cc(-c2ccc(F)cc2)nc1SCC(=O)Nc1ccccc1
  A: 0%; B: 4%; C: 7%; D: 8%; E: 5%; F: 2%

Complete entries, quoted from the list:
Cc1cccc(C)c1Nc1sc(C(=O)c2ccccc2)c(N)c1C(=O)Nc1ccc(F)cc1 is entered as B2AR arrestin ag = -3%; FH mod = -14%; GALK inhibitor = 0%; TSG101-PTAP inh = 0%; p53null 32C kill = 7%; p53null 39C tox = 3%
O=C(O)c1sc(Nc2ccccc2)nc1-c1ccccc1 is entered as B2AR arrestin ag = 1%; FH mod = -6%; GALK inhibitor = -3%; TSG101-PTAP inh = -3%; p53null 32C kill = 1%; p53null 39C tox = 3%

Some of the entries above, set out differently.
Structure	B2AR arrestin ag	FH mod	GALK inhibitor	TSG101-PTAP inh	p53null 32C kill	p53null 39C tox
Cc1cccc(C)c1Nc1sc(C(=O)c2ccccc2)c(N)c1C(=O)Nc1ccc(F)cc1	-3%	-14%	0%	0%	7%	3%
N#Cc1c(C(F)(F)F)cc(-c2ccc(F)cc2)nc1SCC(=O)Nc1ccccc1	0%	4%	7%	8%	5%	2%
CN1CC[C@@H](NC(=O)Nc2ccc(C#N)cc2)C[C@@H]1c1nc2ccccc2[nH]1	·	-5%	·	·	·	·
